Insulin prom inh: TRM-6 insulin promoter activity inhibition; TRM-6 cells (human fetal islet line), insulin promoter-eGFP reporter, imaging; reporter expression induced with tamoxifen; inhibition, % at 2 µM; 0.9% of 130,000 active; AID 1273;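 active means inhibition above the mean plus 3 SD, with well images judged a real hit on visual review, cut at about 60% in these data, passing the limit was not always enough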
PKD1 inh: blocks activity of human protein kinase D1 | Q15139 | PKD1 kinase fluorescence polarization assay | inhibition, %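 (about 10 µM by stock and volumes)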 | 0.056% of 200,000 active | AID 797;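 active means inhibition of 50% or more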;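 further: controls were vehicle for no effect and a reference inhibitor for full effect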
Target sequence (Q15139 whole entry, looked up): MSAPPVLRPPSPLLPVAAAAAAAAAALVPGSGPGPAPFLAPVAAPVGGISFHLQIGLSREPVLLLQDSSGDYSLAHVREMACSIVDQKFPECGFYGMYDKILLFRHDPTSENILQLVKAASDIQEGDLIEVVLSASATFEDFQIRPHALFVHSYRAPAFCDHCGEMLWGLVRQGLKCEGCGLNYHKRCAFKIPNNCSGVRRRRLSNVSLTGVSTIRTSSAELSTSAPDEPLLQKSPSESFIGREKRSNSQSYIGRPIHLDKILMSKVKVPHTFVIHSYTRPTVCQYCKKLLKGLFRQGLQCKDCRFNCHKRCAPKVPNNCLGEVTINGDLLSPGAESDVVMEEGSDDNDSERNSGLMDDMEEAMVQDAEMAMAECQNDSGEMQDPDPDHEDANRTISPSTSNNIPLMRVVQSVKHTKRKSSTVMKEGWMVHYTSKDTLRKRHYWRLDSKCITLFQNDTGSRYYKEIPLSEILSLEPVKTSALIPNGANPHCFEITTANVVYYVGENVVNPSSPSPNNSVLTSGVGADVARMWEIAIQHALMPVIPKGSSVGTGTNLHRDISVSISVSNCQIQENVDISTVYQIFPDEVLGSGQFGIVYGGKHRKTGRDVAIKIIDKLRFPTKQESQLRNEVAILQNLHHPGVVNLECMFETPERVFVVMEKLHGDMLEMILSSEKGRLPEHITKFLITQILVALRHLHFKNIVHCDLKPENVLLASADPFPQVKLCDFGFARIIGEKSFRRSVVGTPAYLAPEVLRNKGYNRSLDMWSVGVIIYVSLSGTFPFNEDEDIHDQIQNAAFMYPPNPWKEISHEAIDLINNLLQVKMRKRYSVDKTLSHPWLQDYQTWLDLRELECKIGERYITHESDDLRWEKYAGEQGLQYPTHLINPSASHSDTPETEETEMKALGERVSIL
GALR2 agonist: agonists of human galanin receptor 2 (GALR2) | O43603 | GALR2-expressing cells, agonist activation read-out | activation, %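 (tested at 5 µM)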 | 0.48% of 140,000 active | AID 803;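 active means above mean plus 3 SD of all compounds, about 5% in these data, not always enough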;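 further: 0% = vehicle buffer wells and 100% = reference agonist at full effect; tested in CHO reporter cells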
HSV augment: HSV replication enhancement; maximum fold increase; HSV replication augmentation in cells, fold increase; 0.005% of 220,000 active;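 active means peak rise of 1.5-fold or more in the series; tested in PC3 cells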;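 further: first round at 10 µM; read as green reporter fluorescence; hits show the peak of a series up to 25 µM; 1 = signal of infected wells without compound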
RGS16-Gao HTS: RGS16-Galphao interaction regulator (human). 0.38% of 220,000 active. binding response (% of control), % at 10 µM. O15492+P09471. AID 1441. bead-based flow cytometry RGS16-Galphao binding, fluorescence; actives lie on both sides;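 active means below 25% or above 175%, edge rows of some plates excepted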;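 further: Galphao activated by GDP with aluminum fluoride before binding; 100% = wells without compound and 0% = beads without RGS; some results beyond the cut were filed as inactive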
Insulin prom inh cell count: also measured in Insulin prom inh; calls as there; normalized cell count, %; measured here: cell count, toxicity; reference of the scale not given here;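 cells exposed to compound for 48 h; stained nuclei by imaging scaled within each plate; lower means fewer cells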
HSV augment primary fold: recorded beside HSV augment, whose call it bears; fold increase; compound at 10 µM; measured here: primary screen fold increase 10 uM; tested in PC3 cells;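 GFP signal in the first replicate; 1 = infected wells without compound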
* hit, by the source's call; i = inactive; nt = not tested or not shown.

SMILES | Insulin prom inh | Insulin prom inh cell count | PKD1 inh | GALR2 agonist | HSV augment | HSV augment primary fold | RGS16-Gao HTS
O=C(O)c1nn(CC(=O)N2CCCCCC2)c(=O)c2ccccc12 | -17 | 125 | -8 | nt | i | 0.97 | 111
COc1cccc(C2C=C(c3ccc(OC)cc3OC)Nc3nnnn32)c1 (stereo unspecified) | 7 | 112 | 17 | -2.0 | nt | nt | 100
COc1ccc(-c2nnc(NC(=O)C3CCCO3)s2)cc1 (stereo unspecified) | -6 | 125 | -9 | -0.7 | i | 0.83 | 103
CCOC(=O)/C=c1\sc2n(c1=O)CCN=2 | -16 | 91 | -2 | -1.8 | i | 0.91 | 115
Cc1cc2n(n1)SC(Nc1cccc3ccccc13)N2 (stereo unspecified) | -22 | 126 | 1 | -2.4 | i | 0.93 | 72
CC(=O)Nc1ccc(NC(=O)CSC2=NCCS2)cc1 | nt | nt | 4 | -0.8 | i | 0.97 | 100
COc1ccc(CNC(=O)CSCc2c(F)cccc2Cl)cc1 | 22 | 88 | 0 | nt | i | 1 | 98
Cc1ccc(NC(=O)N2CCSc3ccccc32)cc1 | nt | nt | 1 | nt | i | 1 | 101
Cc1cc(=O)[nH]c(-c2cccs2)n1 | nt | nt | nt | nt | i | 0.99 | 102
C=CCNC(=O)CN(c1cc(Cl)ccc1OC)S(=O)(=O)c1ccc(C)c([N+](=O)[O-])c1 | nt | nt | 0 | nt | i | 0.89 | 101
O=C1CCCC/C1=C\Nc1ccc(Cl)cn1 | 4 | 137 | 5 | -2.0 | i | 0.87 | 110
Cc1ccc(S(=O)(=O)/C=C2\NC(=O)CS2)cc1 | -51 | 81 | -2 | -3.5 | i | 1.1 | 99
COCCNC(=O)/C(C#N)=C/c1cccc(/C=C(\C#N)C(=O)NCCOC)c1 | 3 | 115 | -8 | 0.2 | i | 0.54 | 109
CCOC(=O)c1cnc2c(N=Nc3cccc(Cl)c3)c(N)nn2c1N | 0 | 117 | -3 | -2.8 | i | 0.89 | 84
COc1ccc(Cl)cc1NC(=O)CN1CCCCCC1 | -106 | 77 | 3 | nt | i | 1 | 103
Cc1ccc(-c2nnc(SCC(=O)N3CC(C)CC(C)C3)o2)cc1C (stereo unspecified) | 57 | 113 | 3 | -0.3 | i | 1.1 | 95
CCNc1nc(C(=O)O)nc(N2CCOCC2)n1 | 33 | 67 | -7 | nt | i | 0.92 | 102
COC(=O)COc1cccc2c(=O)n(CC(=O)N3CCC(C)CC3)ccc12 | nt | nt | nt | nt | i | 1.1 | 107
O=C(NCc1ccc(F)cc1)c1cc2sccc2n1Cc1ccc(F)cc1 | 31 | 106 | 10 | -1.7 | i | 0.94 | 89
COC(=O)CCC(=O)OC1(C)C(=O)C=C2C=C(C3CC3)N(Cc3ccc(OC)cc3)C=C2C1=O (stereo unspecified) | nt | nt | nt | nt | i | 0.93 | 99
Cc1nn(C2CCS(=O)(=O)C2)c(Cl)c1/C=C/C(=O)OCC(=O)c1cc(C)n(-c2ccc(F)cc2)c1C (stereo unspecified) | 17 | 111 | -6 | 1.4 | i | 0.86 | 176
CC(=O)Nc1ccc(OCC(O)CN2C(C)CCCC2C)cc1 (stereo unspecified) | -28 | 163 | -1 | 0.7 | i | 1.1 | 102
Cc1cccc(N2C(=O)c3cccnc3C2=O)c1 | nt | nt | 0 | -1.1 | i | 1.1 | 107
COc1ccc(CN=C2NN=C(c3cccc(OC)c3)CS2)cc1 | nt | nt | -3 | nt | i | 0.96 | 103
O=[N+]([O-])c1ccc(/C=N/n2c(COc3ccccc3)n[nH]c2=S)cc1 | 57 | 110 | -11 | -1.3 | i | 1.2 | 103
The results go on:
SMILES | Insulin prom inh | Insulin prom inh cell count | PKD1 inh | GALR2 agonist | HSV augment | HSV augment primary fold | RGS16-Gao HTS
Cn1cc(CNCC2CCCO2)c(-c2ccc(Oc3ccccc3)cc2)n1 (stereo unspecified) | 17 | 101 | 4 | nt | i | 0.94 | 99
CC1=CSC2=NS(=O)(=O)CCN12 | nt | nt | nt | nt | i | 1.1 | 99
COc1ccc(C(C)=O)cc1CN1C(=O)NC2(CCCCCC2)C1=O | 3 | 259 | -8 | -0.8 | i | 1.1 | 156
Cc1cc(N2CCN(S(=O)(=O)c3ccc(Cl)c(Cl)c3)CC2)c2ccccc2n1 | nt | nt | -6 | nt | i | 0.86 | 100
Cc1cc(OCCn2ccnc2)cc(C(C)C)c1 | -23 | 163 | -12 | -0.3 | i | 1.1 | 111
Cc1nc(SCc2ccc([N+](=O)[O-])cc2)nc2ccccc12 | -4 | 115 | -9 | -3.4 | i | 0.77 | 73
COc1cc(C2NC(=O)NC(C)=C2C(C)=O)ccc1O (stereo unspecified) | nt | nt | nt | nt | i | 1.1 | 100
CC(C)C(=O)NNC(=O)c1csc(CS(=O)(=O)c2ccc(Cl)cc2)n1 | nt | nt | nt | nt | i | 0.96 | 97
COc1ccc(C(=O)NC2CCN(C(=S)NCCc3ccccc3)CC2)cc1 | nt | nt | 5 | nt | i | 0.91 | 92
c1ccc(Cn2c(NCc3ccco3)nc3ccccc32)cc1 | nt | nt | 2 | -2.3 | i | 0.84 | 104
Cc1cnc(NC(=O)CSc2nnc(CNc3ccc(F)cc3)n2CC2CCCO2)s1 (stereo unspecified) | nt | nt | -3 | -1.0 | nt | nt | 127
CCOc1cc(N2CCOCC2)c(OCC)cc1NC(=O)CN1C(=O)NC(CC(C)C)C1=O (stereo unspecified) | nt | nt | 1 | nt | i | 0.88 | 106
COc1ccc(C(=O)Cn2nnc(-c3ccccc3F)n2)cc1 | -71 | 175 | -8 | -1.6 | i | 1.1 | 100
COc1cccc2[nH]c3c(N4CCC5(CC4)OCCO5)ncnc3c12 | nt | nt | nt | nt | i | 0.88 | 102
Cc1ccc(C)c(OCCCN2CCCC2)c1 | -93 | 137 | 1 | -2.4 | i | 1 | 120
Cc1csc(NC(=O)C2=NN(c3ccccc3)C(=O)CC2)n1 | 6 | 75 | 6 | nt | i | 1.1 | 102
N#Cc1cccc(-n2c(-c3ccccc3)nnc2-c2ccccc2)c1C#N | 29 | 82 | 5 | -0.3 | i | 1 | 97
O=C(Nc1ccc(C(F)(F)F)cc1-c1ccccc1)c1ccccc1 | nt | nt | -4 | 0.4 | i | 0.88 | 24
COc1cc(CC(=O)OCC(=O)Nc2ccc(S(=O)(=O)N3CCCC3)cc2)cc(OC)c1OC | -38 | 79 | -5 | -0.6 | i | 0.81 | 108
CN(C)CCCNC(=O)/C(=C\C=C\c1ccccc1)NC(=O)c1ccc([N+](=O)[O-])cc1 | nt | nt | nt | nt | i | 1 | 108
Cc1ccc(SC(=O)c2c([N+](=O)[O-])c(C)nn2C)cc1 | nt | nt | nt | nt | i | 0.92 | 95
CC1Cc2nc(SCC(=O)N3CCCc4ccccc43)n(C)c(=O)c2S1 (stereo unspecified) | nt | nt | -4 | -0.8 | i | 1 | 100
COCCCNC(NC(=O)c1ccc(Br)cc1)C(Cl)(Cl)Cl (stereo unspecified) | nt | nt | -1 | -1.2 | i | 0.89 | 97
COc1ccccc1CNCc1cc(OC)c(OC)c(OC)c1 | -7 | 80 | 0 | nt | i | 0.96 | 100
Cc1noc(NS(=O)(=O)c2ccc(N/C=C/C(=O)c3ccncc3)cc2)c1C | 3 | 80 | 2 | -1.1 | nt | nt | 108
Additional results
SMILES | Insulin prom inh | Insulin prom inh cell count | PKD1 inh | GALR2 agonist | HSV augment | HSV augment primary fold | RGS16-Gao HTS
CC(C)(C)NC(=O)c1ccc(NC(=O)CSc2ccccc2)cc1 | nt | nt | -3 | nt | i | 0.82 | 101
CNS(=O)(=O)c1cccc(C(=O)OCC(=O)Nc2ccc(Cl)cc2F)c1 | nt | nt | nt | nt | i | 1.1 | 97
Cc1csc(NC(=O)c2cc(=O)[nH]c3ccccc23)n1 | nt | nt | nt | nt | i | 0.99 | 101
Cc1ccc(Oc2c(C)nc(-c3ccccc3)[nH]c2=O)cc1 | nt | nt | nt | nt | i | 1 | 98
Cc1ccc(Cn2c(CN(C)Cc3ccccc3)nc3c2c(=O)n(C)c(=O)n3C)cc1 | 57 | 96 | -5 | 0.5 | i | 0.88 | 94
CC1=NN(C(=O)c2ccccc2Br)C(O)(c2cccnc2)C1 (stereo unspecified) | nt | nt | 6 | 0.6 | i | 0.91 | 100
CC(C)(C)NS(=O)(=O)c1ccc(NC(=O)Cc2ccccc2[N+](=O)[O-])cc1 | -39 | 71 | 1 | nt | i | 0.95 | 107
Cc1ccc(-c2c[n+](CC(=O)OCc3ccccc3)c3n2CCC3)cc1 | 43 | 105 | -1 | -1.0 | i | 0.86 | 7.7*
COc1ccc(C2CC2/C(=N/O)c2ccccn2)cc1 (stereo unspecified) | 9 | 108 | -8 | nt | i | 1.1 | 108
Cc1ccc(S(=O)(=O)N/N=C\c2cc3c(cc2Br)OCO3)cc1 | 43 | 83 | 5 | -0.6 | i | 0.92 | 100
CCOC(=O)C1=NNC2C(=O)N(CC)C(=O)C12 (stereo unspecified) | -7 | 72 | -5 | -1.5 | i | 1.1 | 92
O=C(C1=C[C@H](c2ccc(C(F)(F)F)cc2)C[C@H](OCc2ccc(CO)cc2)O1)N1CCN(Cc2ccc3c(c2)OCO3)CC1 | nt | nt | -2 | nt | i | 0.85 | 103
O=C(Cc1ccccc1)NCC(=O)OCC(=O)c1ccc(OC(=O)c2ccccc2)cc1 | 14 | 141 | -14 | -1.8 | i | 1.1 | nt
Oc1ccc(CN2CCN(Cc3ccccc3)CC2)c2cccnc12 | nt | nt | -5 | -1.1 | i | 0.99 | 99
O=C(c1cc2ccccc2o1)N1CCN(S(=O)(=O)c2cccs2)CC1 | 40 | 105 | -3 | -1.0 | i | 0.91 | 103
O=C(Cn1cnc2c(nnn2Cc2ccc(F)cc2)c1=O)Nc1cccc(F)c1 | 37 | 89 | 4 | nt | i | 1.1 | 91
O=C(Nc1ccc(N2CCOCC2)nc1)c1ccc(Cl)cc1 | 7 | 74 | -15 | -0.7 | i | 1 | 102
COc1ccc(NCC(=O)N/N=C/c2ccc3c(c2)OCCO3)cc1 | nt | nt | -5 | 0.6 | i | 0.72 | 98
CC(C)(C)c1cc(C(=O)NNC(=O)c2ccc(C(F)(F)F)cc2)no1 | nt | nt | nt | nt | i | 1 | 99
COc1cccc(N2C(=O)C3CC=C(Cl)CC3C2=O)c1 (stereo unspecified) | 54 | 120 | -5 | -2.4 | i | 1.1 | 99
O=C(Cc1c(O)c2ccccc2[nH]c1=O)NCc1ccc(F)cc1 | -19 | 67 | 2 | -1.6 | i | 0.96 | 97
COc1cccc(C(c2sc3nc(C)nn3c2O)N2CCC3(CC2)OCCO3)c1 (stereo unspecified) | nt | nt | 16 | 0.8 | i | 0.98 | 102
O=C(c1ccccc1SCc1ccc(F)cc1)N1CCOCC1 | nt | nt | 1 | nt | i | 1.1 | 97
Cc1cc(C)nc(N(C#N)Cc2cccc([N+](=O)[O-])c2)n1 | -116 | 103 | -9 | nt | i | 0.86 | 99

Of the compounds above, 12 have fluorine:
SMILES | Insulin prom inh | Insulin prom inh cell count | PKD1 inh | GALR2 agonist | HSV augment | HSV augment primary fold | RGS16-Gao HTS
COc1ccc(CNC(=O)CSCc2c(F)cccc2Cl)cc1 | 22 | 88 | 0 | nt | i | 1 | 98
O=C(NCc1ccc(F)cc1)c1cc2sccc2n1Cc1ccc(F)cc1 | 31 | 106 | 10 | -1.7 | i | 0.94 | 89
Cc1nn(C2CCS(=O)(=O)C2)c(Cl)c1/C=C/C(=O)OCC(=O)c1cc(C)n(-c2ccc(F)cc2)c1C (stereo unspecified) | 17 | 111 | -6 | 1.4 | i | 0.86 | 176
Cc1cnc(NC(=O)CSc2nnc(CNc3ccc(F)cc3)n2CC2CCCO2)s1 (stereo unspecified) | nt | nt | -3 | -1.0 | nt | nt | 127
COc1ccc(C(=O)Cn2nnc(-c3ccccc3F)n2)cc1 | -71 | 175 | -8 | -1.6 | i | 1.1 | 100
O=C(Nc1ccc(C(F)(F)F)cc1-c1ccccc1)c1ccccc1 | nt | nt | -4 | 0.4 | i | 0.88 | 24
CNS(=O)(=O)c1cccc(C(=O)OCC(=O)Nc2ccc(Cl)cc2F)c1 | nt | nt | nt | nt | i | 1.1 | 97
O=C(C1=C[C@H](c2ccc(C(F)(F)F)cc2)C[C@H](OCc2ccc(CO)cc2)O1)N1CCN(Cc2ccc3c(c2)OCO3)CC1 | nt | nt | -2 | nt | i | 0.85 | 103
O=C(Cn1cnc2c(nnn2Cc2ccc(F)cc2)c1=O)Nc1cccc(F)c1 | 37 | 89 | 4 | nt | i | 1.1 | 91
CC(C)(C)c1cc(C(=O)NNC(=O)c2ccc(C(F)(F)F)cc2)no1 | nt | nt | nt | nt | i | 1 | 99
O=C(Cc1c(O)c2ccccc2[nH]c1=O)NCc1ccc(F)cc1 | -19 | 67 | 2 | -1.6 | i | 0.96 | 97
O=C(c1ccccc1SCc1ccc(F)cc1)N1CCOCC1 | nt | nt | 1 | nt | i | 1.1 | 97

From PubChem
